Screening data from PubChem.
TRPML1 ag – activates the human TRPML1 channel. Q9GZU1. TRPML1-expressing cells, Ca2+ dye fluorescence, FDSS; host cell line not named in the record; reference of the full effect not given here. activation, % (no concentration beside the values). 0.12% of 410,000 active; in the data active = activation above about 50%; inconclusive = about 30% to 50%; inactive = below about 30%; further: 0% is about no effect; the text of the record puts the active cut at 80%
Target sequence (Q9GZU1 whole entry, looked up): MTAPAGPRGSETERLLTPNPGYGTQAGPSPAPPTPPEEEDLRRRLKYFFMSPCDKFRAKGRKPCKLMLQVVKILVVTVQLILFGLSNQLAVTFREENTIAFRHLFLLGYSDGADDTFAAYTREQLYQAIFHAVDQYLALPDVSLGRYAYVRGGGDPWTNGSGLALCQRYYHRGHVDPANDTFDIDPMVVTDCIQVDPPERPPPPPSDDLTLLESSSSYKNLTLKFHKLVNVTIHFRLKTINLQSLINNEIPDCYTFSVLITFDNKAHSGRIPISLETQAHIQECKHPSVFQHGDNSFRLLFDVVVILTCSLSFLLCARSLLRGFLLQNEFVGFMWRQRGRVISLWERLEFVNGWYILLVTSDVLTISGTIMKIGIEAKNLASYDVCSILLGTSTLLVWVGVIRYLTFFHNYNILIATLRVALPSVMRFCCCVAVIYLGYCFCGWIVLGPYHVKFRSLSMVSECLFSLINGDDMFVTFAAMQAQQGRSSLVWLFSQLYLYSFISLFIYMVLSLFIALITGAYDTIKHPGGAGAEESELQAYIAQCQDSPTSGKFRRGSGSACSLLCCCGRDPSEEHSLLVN
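Calcium fluorescence on an FDSS kinetic reader gave the read-out. Tet-induced TRPML1-DL cells were plated overnight, dye-loaded (Ca8 with quencher, 45-90 min, room temperature, dark), then read 110 s after compound addition, and again 110 s after 4uM final 54-4 (EC80).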
TRPML1 blocker – human mucolipin-1 channel inhibition; Q9GZU1; TRPML1-inducible cells, Ca2+ dye fluorescence, FDSS; stronger effect = lower value; inhibition of EC80 agonist-evoked calcium signal; activity change, negative = inhibition, % (test concentration not listed); 0.02% of 390,000 active; AID 624415; in the data active means activity change below about -50%; inconclusive means about -30% to -50%; inactive means above about -30%;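 further: stimulus is agonist 54-4 at its EC80 concentration; on the % scale 0 is the no-effect control and ±100 the full control effect; compound concentration not given in the record; the text of the record puts the active cut at -80%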
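Calcium fluorescence in TRPML1-DL cells induced overnight with Tet: a 110 s read after compound pin addition, then a 110 s antagonist read after challenge with 54-4 at 4 uM final (EC80).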
D2 potentiator – human D2 receptor positive allosteric modulation; potentiation, % (concentration not given with the values); P14416; AID 624464; DiscoveRx D2 beta-arrestin cells, luminescence, 90 min; 100% = 57 uM dopamine signal; 0.23% of 360,000 active; active = potentiation of 50% or more; inconclusive = 30% to 50%; inactive = 30% or less;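 further: compound concentration not given in the record; tested on top of an EC20 dose of dopamine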
Target sequence (P14416 whole entry, looked up): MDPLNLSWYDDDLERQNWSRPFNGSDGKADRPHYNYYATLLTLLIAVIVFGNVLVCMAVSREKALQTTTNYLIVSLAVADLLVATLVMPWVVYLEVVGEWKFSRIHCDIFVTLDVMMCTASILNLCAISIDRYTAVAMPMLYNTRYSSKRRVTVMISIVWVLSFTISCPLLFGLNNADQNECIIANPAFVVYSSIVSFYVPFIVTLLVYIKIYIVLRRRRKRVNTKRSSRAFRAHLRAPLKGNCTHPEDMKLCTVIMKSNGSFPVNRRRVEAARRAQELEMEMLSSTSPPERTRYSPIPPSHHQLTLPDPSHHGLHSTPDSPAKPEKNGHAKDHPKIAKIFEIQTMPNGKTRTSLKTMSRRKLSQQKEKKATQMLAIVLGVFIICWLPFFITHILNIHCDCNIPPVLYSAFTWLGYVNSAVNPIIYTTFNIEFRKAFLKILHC
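D2 cells co-treated with compound plus 50 nM dopamine (EC20) for 90 min at 37 deg C to detect potentiation. Beta-arrestin recruitment was read as enzyme-fragment luminescence after 1 h at ambient temperature. Full response was set by 57 uM dopamine.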
TRPV1 potentiator – potentiators of human vanilloid receptor 1 (TRPV1); Q8NER1; AID 540277; TRPV1-expressing cells, Fluo-8 calcium influx, capsaicin EC20 potentiation; host cell line not named in the record; control for the full effect not named in the record; 0.02% of 320,000 active; potentiation, % at 8.33 µM; active means potentiation above 80%; inconclusive means 30% to 80%; inactive means below 30%; further: 0% is about no effect
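TRPV1-expressing cells were cultured overnight at 35.5C and loaded with Fluo-8 calcium dye for 40 to 90 min at room temperature. After a 10 s baseline, compound was added and calcium influx was read kinetically for 3 min (ex 480/em 520 nm).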
CtBP-E1A blk – inhibitors of CtBP/E1A interaction. 0.49% of 340,000 active. activity change, % (no concentration beside the values). AID 651724. AlphaScreen GST-E1A/His-CtBP binding, 1536-well; stronger effect = lower value; control for the full effect not named in the record; in the data active means activity change below about -65%; inconclusive means about -30% to -65%; inactive means above about -30%; further: on the % scale 0 is the no-effect control and ±100 the full control effect; compound concentration not given in the record
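Protein mix (5X: 125 nM each GST-E1A, His-CtBP) was incubated with pinned compound 2 h at 37 deg C in dark, in 50 mM Tris pH 8.0 buffer with 300 mM NaCl. Glutathione donor and nickel acceptor beads followed; AlphaScreen signal read after 1 h.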
Six1-Eya2 inh – Six1/Eya2 interaction inhibition; Q15475+O00167; AlphaScreen GST-Six1/His-Eya2 binding, biochemical; stronger effect = lower value; control for the full effect not named in the record; activity change, % (no concentration beside the values); 0.56% of 360,000 active; in the data active = activity change below about -65%; inconclusive = about -30% to -65%; inactive = above about -30%; further: on the % scale 0 is the no-effect control and ±100 the full control effect; compound concentration not given in the record
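Compounds are tested against tagged Six1 and Eya2 proteins bridged by glutathione donor and nickel acceptor beads; after a one-hour incubation at 37 °C without light, AlphaScreen emission is recorded.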
Active calls of the source: *; u = inconclusive; x = not tested or not shown; & = joins results of further samples.

SMILES	TRPML1 ag	TRPML1 blocker	D2 potentiator	TRPV1 potentiator	CtBP-E1A blk	Six1-Eya2 inh
Cc1ccc(S(=O)(=O)Cn2nnnc2CN2CCN(Cc3ccc4c(c3)OCO4)CC2)cc1	-0.7	-8	-29	6	-2	-1
COc1ccc(OC)c(N(CC(=O)N2CCCC2)S(C)(=O)=O)c1	x	x	-54	-2	x	-16
COc1ccccc1N(Cc1cc(=O)[nH]c2ccccc12)C(=O)C(C)C	-0.5	22	-2	0	x	0
O=C(c1cccc(Br)c1)N1CCN(C(=O)N2CCOCC2)CC1	1.7	-8	-22	-1	7	6
O=C(N[C@H](Cc1cc(=O)[nH]c2ccccc12)C(=O)O)c1ccc(Cl)cc1	-0.4	-16	-10	9	-2	-11
CCCNCc1nnc(-c2ccccc2Cl)o1	-0.6	-6	-4	3	2	0
CCC(=O)Nc1ccc2nc(C)n(CC(=O)Nc3ccccc3)c(=O)c2c1	0.2	-5	3	-9	54	23
Cc1noc(C)c1COC(=O)c1cccc(S(=O)(=O)N2CCOCC2)c1	-0.2	-5	-22	4	10	-7
O=C1/C(=C/c2ccc(F)cc2)SC(=S)N1N1CCOCC1	0.8	25	-3	-7	-11	1
CCOc1ccc2nc(SCC(=O)Nc3cc(C)on3)c(C)cc2c1	3.8	20	-5	-11	4	6
CCOCCCNC(=O)C1(O)c2cc(Br)ccc2NC(=O)N1c1ccc(OCC)cc1 (centres undefined)	1.3	-20	-9	2	0	6
C=CCSc1nnc(C)n1-c1ccc(Cl)cc1	0.3	-8	-8	0	1	2
CCN(CC(=O)NCc1ccc(Cl)cc1)C(=O)CCC(=O)c1ccc(F)cc1	-0.7	4	-6	-5	1	6
CC1(C(=O)NS(=O)(=O)c2ccc(F)cc2F)CCN1C(=O)c1ccco1 (centres undefined)	-0.6	x	-7	x	12	6
O=C(NC1CC1)C1=NOC(CNc2ncc(C(F)(F)F)cc2Cl)C1 (centres undefined)	-0.8	5	-21	-5	3	4
Cc1cc(-c2ccccc2)n(-c2ccc(C(=O)N3CCN(c4ncccn4)CC3)cc2)n1	3.3	-5	-1	0	4	4
CC(C)(/C=N/O)/[N+]([O-])=C/C=[N+](\[O-])C(C)(C)/C=N/O	-0.4	-1	13	4	5	-2
Cc1ccc(CNC(=O)C2CCC(=O)N(Cc3cccc(F)c3)C2)s1 (centres undefined)	-1.0	10	-6	x	-1	-1
Cc1cccc(-c2nnc(SCC(=O)Nc3ncccn3)n2C)c1	0.8	2	-3	10	0	3
O=C(NCCCN1CCCCCC1)C1CC(=O)N(CCc2ccccc2)C1 (centres undefined)	0.0	-26	-12	1	6	7
Cc1nnc(SC2CC(=O)N(c3ccccc3)C2=O)s1 (centres undefined)	-1.2	2	-9	21	0	3
CCOC(=O)c1ccc(NC(=O)Nc2cc(C)on2)cc1	2.4	16	-11	4	-24	0
Cc1ccsc1/C=N\Nc1cn[nH]c(=O)c1Cl	0.7	6	-2	21	-6	-3
CCOC(=O)C1CSC(CC(=O)Nc2ccc(OCC)cc2)C(=O)N1 (centres undefined)	0.8	30	1	11	3	7
O=C(Nc1ccccc1C(=O)N1CCOCC1)C1COc2ccccc2O1 (centres undefined)	-0.2	-9	0	-8	-11	-4
O=c1[nH]c(=O)c2ccccc2o1	0.6	-1	-8	x	7	-4
C[C@H]1CN(Cc2ccccc2)C(=O)[C@@H]1CC(=O)Nc1ccccc1	0.3	-12	-3	x	-5	6
COc1ccc(Br)cc1C1CC(=O)N2CN(C)CSC2=C1C#N (centres undefined)	1.5	3	-7	x	2	2
CC(C)[C@H](NC(=O)c1ccccc1)C(=O)OCC(=O)N1CCN(C(=O)c2ccco2)CC1	-0.1	24	7	-29	0	7
Cc1cccc(NCc2nc(SCC(=O)Nc3ccccc3)n[nH]2)c1	0.9	-8	-5	29	-7	5
COc1ccc(NC(=O)Nc2ccc(Br)cn2)cc1OC	-0.4	3	-10	6	-18	-6
O=C(CSc1nc2ccc(F)cc2c(=O)n1-c1ccccc1)Nc1ccc2c(c1)CCC2	0.3	15	-4	x	-2	-1
O=C(CNC(=O)c1ccc(Br)o1)NNC(=O)COc1ccccc1Cl	1.5	-11	-2	1	-2	-3
CN(C)c1ccc(C2N(C)C(=O)c3ccccc3N2C)cc1 (centres undefined)	-0.9	-6	2	-7	-12	-15
CC1(C)Cc2nc3sc(C(=O)NCCO)c(N)c3cc2CO1	-0.8	30	-1	u	10	3
CCc1nc(Sc2nc(C)cc(C)n2)c2oc3ccccc3c2n1	3.2	-5	8	15	-1	-11
COc1ccc(Nc2nc(N)c([N+](=O)[O-])c(N3CCN(C)CC3)n2)cc1	-0.2	1	-10	10	x	-5
O=S(=O)(Nc1nc2ccccc2nc1NCC1CCCO1)c1cc(Cl)ccc1Cl (centres undefined)	-1.0	-6	-5	23	0	-5
O=C1C2C3C=CC([C@@H]2C(=O)N1C1CC1)[C@H]1C(=O)N(C2CC2)C(=O)C31 (some centres undefined)	1.1	-8	-9	9	9	2
COc1cc([N+](=O)[O-])ccc1NC(=O)Nc1nc2c(s1)CCCC2	0.2	27	-2	11	-6	7
O=C(Nc1ccc(OCc2ccccc2)cc1)Nc1nnc([C@@H]2C[C@H](O)[C@@H](CO)O2)s1	0.5	x	-1	x	-12	1
CCOC(=O)c1sc(NC(=O)CCCn2nc([N+](=O)[O-])cc2C)c(C(=O)OCC)c1C	0.7	0	-6	2	4	9
N#Cc1ccc(-c2nc3ccc(Br)cn3c2Cc2ccsc2)cc1	1.6	10	-6	x	-3	4
COc1ncccc1-c1nnn(-c2ccc(C)cc2)n1	0.0	-6	-19	-2	-1	26
CN(C(=O)Nc1ccc(Cl)cc1Cl)[C@H]1c2cc(Br)ccc2OC[C@H]1CO	3.6	3	-4	-15	-4	0
O=c1c2c(-c3cccs3)csc2ncn1-c1ccccc1	-0.8	21	-2	18	-2	7
Cc1cccc(NC(=O)CNC(=O)c2ccc(-n3cncn3)c([N+](=O)[O-])c2)c1C	0.3	1	0	-5	2	2
COc1ccc(NC(=O)N2CCCCCC2)cc1	0.7	14	-2	-13	2	12
O=C(COc1ccc(Cl)cc1)Nc1ccc2c(c1)CCC2	3.9	-13	-22	u	3	16
COc1ccc(/C=N/Nc2nc3ccccc3s2)cc1O	-1.4	-11	-11	4	1	-1

Some of the entries so far, in markdown:
| Structure | TRPML1 ag | TRPML1 blocker | D2 potentiator | TRPV1 potentiator | CtBP-E1A blk | Six1-Eya2 inh |
| --- | --- | --- | --- | --- | --- | --- |
| O=c1c2c(-c3cccs3)csc2ncn1-c1ccccc1 | -0.8 | 21 | -2 | 18 | -2 | 7 |
| Cc1cccc(NC(=O)CNC(=O)c2ccc(-n3cncn3)c([N+](=O)[O-])c2)c1C | 0.3 | 1 | 0 | -5 | 2 | 2 |
| COc1ccc(NC(=O)N2CCCCCC2)cc1 | 0.7 | 14 | -2 | -13 | 2 | 12 |
| O=C(COc1ccc(Cl)cc1)Nc1ccc2c(c1)CCC2 | 3.9 | -13 | -22 | u | 3 | 16 |
| COc1ccc(/C=N/Nc2nc3ccccc3s2)cc1O | -1.4 | -11 | -11 | 4 | 1 | -1 |

Further results follow:
SMILES	TRPML1 ag	TRPML1 blocker	D2 potentiator	TRPV1 potentiator	CtBP-E1A blk	Six1-Eya2 inh
COc1ccc(CC(=O)c2ccc(OC)c(OC)c2)cc1	1.5	17	-5	-14	-18	-8
CSCCC(NC(=O)c1ccc([N+](=O)[O-])cc1Cl)C(=O)OC1CCCCC1=O (centres undefined)	0.1	41	-9	15	13	0
N#Cc1c(N)nc2c3c(sc(=N)c2c1N)NC(=O)CC3c1ccccc1 (centres undefined)	0.5	3	20	8	u	u
Cc1cccc(Nc2nn3c(=O)c4ccccc4nc3s2)c1	0.1	-4	-8	9	-23	-6
COc1ccc(OCC(=O)NNC(=O)C2CCCO2)cc1 (centres undefined)	0.2	3	-6	-3	-2	2
CCN(CC)CCCn1c2c(c(SCC(=O)Nc3ccc(F)c(F)c3)nc1=O)CCC2	-0.2	0	-10	-6	4	-7
CCn1cc(CCC(=O)NCc2ccc(F)cc2)c2ccccc21	3.3&-0.1	13&0	-18	18	x	-7
O=C(N/N=C/c1ccccc1)c1ccc(N2CCOCC2)c([N+](=O)[O-])c1	-0.2	14	2	-21	2	2
COC(=O)Nc1nc2ccc(Br)cc2s1	1.3	55	-4	5	-21	5
CC(=O)c1cccc(NS(=O)(=O)c2ccc(N/C=C\C(=O)c3ccc(F)cc3)cc2)c1	1.3	u	-5	-11	-8	-14
C/C(=C\C(=O)c1ccccc1)Nc1ccc(Cl)c(Br)c1	-1.0	-16	-1	x	1	-1
COc1ccc(/C=C/C=C2\NC(=S)NC2=O)cc1	1.0	-1	-7	5	-2	-1
C/C(=N\NC(=O)c1c(Cl)c(C)nn1C)c1cccc(NC(=O)COc2ccccc2)c1	0.7	-6	6	6	-5	2
COc1ccccc1NC(=O)c1ccc(-n2cccn2)nc1	-1.5	-11	1	-3	3	5
CCCCN1C(=O)C(NC(=O)c2cccnc2)(C(F)(F)F)C2=C1CC(C)(C)CC2=O (centres undefined)	-0.8	16	-3	6	10	6
Cc1cccc(OCC(=O)O/N=C(\N)c2ccccn2)c1	0.6	-5	3	-1	-1	2
N#Cc1ccsc1NC(=O)CSc1nnc(NC2CC2)s1	0.8	u	-7	x	4	-7
Cc1cc(=O)oc2cc(OCC(=O)N3CCc4ccccc4C3)ccc12	1.1	-13	-6	6	2	-6
CCOc1ccccc1NC(=O)C1CCCN(c2c(CC)c(C)nc3ncnn23)C1 (centres undefined)	1.2	-13	0	11	-3	-11
OCC[n+]1ccc(/C=C/c2c[nH]c3ccccc23)cc1	7.8	1	-2	14	2	-1

Sorted by length of the SMILES (high to low): some entries from above
SMILES	TRPML1 ag	TRPML1 blocker	D2 potentiator	TRPV1 potentiator	CtBP-E1A blk	Six1-Eya2 inh
Cc1ccc(CNC(=O)C2CCC(=O)N(Cc3cccc(F)c3)C2)s1 (centres undefined)	-1.0	10	-6	x	-1	-1
COc1ccc(NC(=O)Nc2ccc(Br)cn2)cc1OC	-0.4	3	-10	6	-18	-6
COc1ccc(NC(=O)N2CCCCCC2)cc1	0.7	14	-2	-13	2	12

Additional structures follow.
SMILES	TRPML1 ag	TRPML1 blocker	D2 potentiator	TRPV1 potentiator	CtBP-E1A blk	Six1-Eya2 inh
C(=Nc1cccc2c(N=Cc3ccco3)cccc12)c1ccco1	1.0	11	0	-3	x	3
CN(C)c1ccc(P(=O)(OCc2ccccc2)C(O)c2cccnc2)cc1 (centres undefined)	-0.8	0	-1	-6	2	-2
Cc1ccccc1CN1CCN(C(=O)c2cccc(F)c2)CC1	4.1	2	-19	-6	2	0
Cc1ccc(C)c(S(=O)(=O)N2CCCOC2CNC(=O)C(=O)NCc2ccco2)c1 (centres undefined)	-0.7	-10	-11	8	-7	4
CCCCn1c(=NC(=O)c2ccc3c(c2)OCO3)c(C#N)cc2c(=O)n3cccc(C)c3nc21	0.9	12	-8	-1	0	-9
O=C(CSc1ncnc2c1cnn2-c1cccc(Cl)c1)NCC1CCCO1 (centres undefined)	0.7	-8	7	-6	0	9
COc1ccc(C)cc1NC(=O)N1CCCc2ccccc21	0.9	-3	-13	-11	-9	0
CCO[C@H]1OC(C(=O)N2CCN(Cc3ccc4c(c3)OCO4)CC2)=C[C@@H](C(C)(C)C)[C@@H]1CCCO	0.1	-24	-11	0	0	4
